# Arbovirus inh: arbovirus infection inhibition; arbovirus infection cell-based antiviral screen; inhibition, % at 10 µM; hit rate 0.37% among 200,000; AID 1251;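 active = inhibition from about 30%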;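 note: bluetongue infection of BSR cells; cell survival read as ATP light after 72 h; 0% = infected wells without compound and 100% = uninfected wells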
# Mtb growth: M. tuberculosis H37Rv growth inhibitors, H37Rv strain (AID 1626); M. tuberculosis H37Rv growth inhibition; higher % means a stronger effect; one-dose inhibition, % at 10 µM; IC50 in µM for titrated hits; hit rate 0.95% among 220,000;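 active = confirmed in a dose series; inconclusive = inhibition above 80% but not taken into the dose series; inactive = below 80% or under 30% at every dose of the series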;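 note: bacteria incubated seven days before Alamar blue readout; 0% = bacteria only wells and 100% = bacteria with antibiotic wells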
# Mtb betalactam: beta-lactam sensitization of Mtb H37Rv | hit rate 0.27% among 330,000 | inhibition, % at 25 µM | AID 434955 | M. tuberculosis H37Rv growth with meropenem, percent inhibition; hits of this screen are not shown here;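 active = about 74% or more and at least 40 points above the plate without the antibiotic, then above 30% in a dose series; inconclusive = first-round hits that could not be retested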;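 note: growth measured after seven days incubation then overnight dye step; 0% = bacteria only wells and 100% = bacteria with antibiotic; twin plates without the antibiotic show which effects depend on it; some results filed as inactive read as strong as hits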
# YopH PTP inh: blocks Yersinia enterocolitica YopH tyrosine phosphatase; hit rate 0.16% among 140,000; fluorescence Ex485/Em525; AID 898; inhibition, %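 (about 10 µM by stock and volumes)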;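 active = inhibition of 50% or more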;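 note: controls were vehicle for no effect and minimum signal wells for full effect; inactives centre near -20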
# RecA intein inh: inhibitors of M. tuberculosis RecA intein splicing; hit rate 0.75% among 290,000; P9WHJ3; cell-free RecA intein splicing, fluorescence; inhibition, %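 (about 9 µM by stock and volumes)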; in the data active = inhibition above about 30%; inconclusive = no clear call, values can overlap the other calls;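 note: 0% = vehicle wells and 100% = reference inhibitor control wells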
# Target sequence (P9WHJ3 whole entry, looked up): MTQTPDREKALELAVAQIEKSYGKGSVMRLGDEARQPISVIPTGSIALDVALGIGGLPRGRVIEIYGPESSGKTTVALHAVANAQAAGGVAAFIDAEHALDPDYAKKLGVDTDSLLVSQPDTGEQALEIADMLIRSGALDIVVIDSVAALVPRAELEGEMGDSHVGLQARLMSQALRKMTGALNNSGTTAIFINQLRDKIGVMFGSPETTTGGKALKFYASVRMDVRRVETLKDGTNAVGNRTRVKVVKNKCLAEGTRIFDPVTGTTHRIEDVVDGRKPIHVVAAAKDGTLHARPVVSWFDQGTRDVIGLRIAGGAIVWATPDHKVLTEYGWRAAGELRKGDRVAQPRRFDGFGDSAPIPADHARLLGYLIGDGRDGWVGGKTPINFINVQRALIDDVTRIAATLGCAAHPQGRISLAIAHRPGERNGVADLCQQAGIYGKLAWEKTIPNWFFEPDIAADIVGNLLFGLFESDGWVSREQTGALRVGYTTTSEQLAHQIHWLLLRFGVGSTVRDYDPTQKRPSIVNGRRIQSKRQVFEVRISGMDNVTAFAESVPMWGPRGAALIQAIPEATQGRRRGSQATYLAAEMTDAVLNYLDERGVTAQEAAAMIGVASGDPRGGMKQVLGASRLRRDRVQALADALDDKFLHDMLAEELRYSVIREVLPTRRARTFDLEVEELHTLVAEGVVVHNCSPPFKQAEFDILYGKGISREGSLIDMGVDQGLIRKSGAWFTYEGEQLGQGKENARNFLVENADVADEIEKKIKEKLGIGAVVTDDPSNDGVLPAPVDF
# Arbovirus inh repeat: recorded beside Arbovirus inh, whose call it bears; inhibition, %; measured here: 10K subset replicate screen; many hits read low in the repeat;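 first of two repeat runs on a subset; 0% = infected and 100% = uninfected wells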
# Numbers without * were called inactive; u = inconclusive; x = not tested or not shown.
SMILES,Arbovirus inh,Mtb growth,Mtb betalactam,YopH PTP inh,RecA intein inh,others
Cc1ccc(NC2CCCN(C(=O)C3CCCC3)C2)cc1C (centres undefined),x,x,11,x,-0.6,
O=C(Cn1cnc2ccccc2c1=O)NCC(=O)N1CCN(c2ccccn2)CC1,6,-7%,-4,-6,x,
O=C(CCCC1=NS(=O)(=O)c2ccccc2N1)N1CCN(c2ccccc2)CC1,-1,-11%,-5,-48,-0.9,
CCOc1ccccc1N1CCN(C(=O)NC2CCCCC2)CC1,x,x,-5,x,-1.3,
O=c1oc2ccccc2c2oc3cc(O)c(O)cc3c12,x,0%,77,x,-11,
CC(C)C[C@@H]1NC(=O)[C@H](CO)NC(=O)c2cc([N+](=O)[O-])cc(I)c2OCC[C@@H](C(N)=O)NC1=O,0,-2%,-4,-23,x,
COCCCn1c(=O)c2sccc2n2c(CCCC(=O)NCc3ccccc3OC)nnc12,x,x,-4,x,-3.6,
O=C(COc1ccc(S(=O)(=O)NC2CCCCC2)cc1Cl)N1CCN(c2ccccc2)CC1,-18,7%,17,-31,7.3,
COc1ccc(/C=C/c2ccccc2)cc1[C@H]1[C@@H]2C=CCC[C@@]2(C)C(=O)N1Cc1ccccc1,x,21%,14,x,6.3,
CCCC(O)(c1ccc(OC)cc1)C(CN1CCOCC1)c1ccc(Cl)cc1 (centres undefined),x,x,36,x,11,
Cc1ccc(/C(N)=N/OC(=O)Cc2cccs2)cc1,2,-1%,-1,-40,2.4,
O=c1[nH]c(C2CCN(S(=O)(=O)c3ccc(C(F)(F)F)cc3)CC2)nc2c1nnn2Cc1cccc(F)c1,x,x,5,x,11,
CC1=C([N+](=O)[O-])C(c2ccccc2Cl)NC(=O)N1C (centres undefined),x,x,6,x,-3.6,
COCCNC(=O)Nc1ccc2nc(-c3cccs3)c(-c3cccs3)nc2c1,-24,2%,77,-8,-65,
Cc1cc2cc(CN(Cc3ccco3)C(=O)NCc3ccccc3)c(=O)[nH]c2cc1C,-14,2%,0,-23,-6.4,
COc1ccc(-c2csc(NC(=S)NC(=O)/C=C/c3ccco3)n2)cc1OC,-22,6%,-3,-23,4.2,
CCS(=O)(=O)NCCc1cc2cc(C)c(C)cc2[nH]c1=O,1,-1%,x,3,x,
C/C(=N\NC(=O)c1c(Cl)c(C)nn1C)c1cccc(NC(=O)c2cccc(F)c2)c1,x,x,-11,x,-0.9,
Cc1ccc(CN2CCCC(C(=O)c3cccc(C(F)(F)F)c3)C2)o1 (centres undefined),11,-5%,-1,x,5.0,
Cc1ccc(-c2nn3c(C)nnc3c3ccccc23)cc1S(=O)(=O)NCCO,-12,11%,-4,x,x,
CCc1n[nH]c(=S)n1/N=C/c1cc(Br)c(O)c(OC)c1,x,10%,-1,x,-0.4,
O=C(NC1=NCCCCC1)c1cccc2ccccc12,15,-2%,17,x,0.4,
Cn1nnc(NC(=S)NC(=O)c2ccco2)n1,-4,7%,-1,-34,5.2,
COc1cc(OC)cc(C(=O)N/N=C(\C)CC(=O)Nc2ccccn2)c1,x,x,-2,x,56*,
CC(=O)C1=C(O)C(=O)N(c2ccc(C(=O)O)cc2)C1c1ccccc1 (centres undefined),2,-8%,-4,6,0.8,
CCC(C)NC(=O)CCNS(=O)(=O)c1ccc(Br)cc1 (centres undefined),-4,-5%,-12,-20,-0.7,
c1ccc(Cc2nnc3sc(Nc4ccccc4)nn23)cc1,-2,-3%,5,7,-1.2,
C/C=C/c1ccccc1OCc1ccc(C(=O)O)o1,6,-7%,-8,24,-0.3,
c1ccc(C2OC3c4cccc5cccc(c45)C3N2c2ccccc2)cc1 (centres undefined),-9,-3%,-8,0,0.1,
CCC(NS(=O)(=O)c1ccc(C)cc1)C(=O)N1CCOCCOCCOCCOCC1 (centres undefined),x,x,5,x,3.7,
NC(=O)C1CCCN(Cc2ccc(Cl)cc2)C1 (centres undefined),3,-4%,-3,-28,4.9,
Cc1ccnc(NC(=O)c2sc3ccccc3c2Cl)c1,-3,2%,2,-24,-0.2,
Cc1cccc(C)c1NS(=O)(=O)c1ccc(NC(=O)c2ccc(Cl)c([N+](=O)[O-])c2)cc1,-40,7%,-2,-22,2.4,
CC(=O)c1ccc(NC(=O)C2CCC(C)NC2=O)cc1 (centres undefined),13,3%,-5,-44,0.2,
Cc1ccccc1N1CCN(C2CCCN(C(=O)c3cc(C(C)C)[nH]n3)C2)CC1 (centres undefined),x,x,-5,x,0.7,
CN(C)S(=O)(=O)c1ccc(C(=O)Nc2ccccc2[N+](=O)[O-])cc1,12,5%,8,-26,-2.1,
CN1CCC(N(C)S(=O)(=O)c2ccc(NC(=O)COc3cccc(Cl)c3)cc2)CC1,x,x,-4,x,-2.3,
CC12CC3CC(C)(C1)CC(C(=O)N1CCN(C(=O)c4ccco4)CC1)(C3)C2,x,x,-6,x,1.3,
CCCCn1c(N)c(N(CCOC)C(=O)CSc2n[nH]c(-c3ccc(C)cc3)n2)c(=O)[nH]c1=O,x,x,-5,x,-0.4,
Cc1ccc2nc(-c3ccc4c(c3)OCCO4)cn2c1,x,15%,15,x,2.4,

# Reprinted from the part before: four entries, then new ones.
SMILES,Arbovirus inh,Mtb growth,Mtb betalactam,YopH PTP inh,RecA intein inh,others
CN1CCC(N(C)S(=O)(=O)c2ccc(NC(=O)COc3cccc(Cl)c3)cc2)CC1,x,x,-4,x,-2.3,
CC12CC3CC(C)(C1)CC(C(=O)N1CCN(C(=O)c4ccco4)CC1)(C3)C2,x,x,-6,x,1.3,
CCCCn1c(N)c(N(CCOC)C(=O)CSc2n[nH]c(-c3ccc(C)cc3)n2)c(=O)[nH]c1=O,x,x,-5,x,-0.4,
Cc1ccc2nc(-c3ccc4c(c3)OCCO4)cn2c1,x,15%,15,x,2.4,
CC(C)(C)C(=O)N1CCN(c2ccc(NC(=O)c3ccco3)cc2)CC1,x,x,-7,x,-3.6,
c1ccc(CCNCc2ccccc2)cc1,3,7%,6,-10,2.4,
Cc1ccccc1-n1c(Cn2c(=O)sc3ccccc32)nnc1SCC(=O)N1CCOCC1,4,-7%,-3,-33,x,Arbovirus inh repeat=0
Cc1cccc(C)c1N/C=C/c1onc(C)c1[N+](=O)[O-],-2,-6%,-10,-12,0.8,
CCc1ccc(NC(=O)COC(=O)C2(c3ccc(Cl)cc3)CCCC2)cc1,-1,-8%,1,-18,-4.6,
O=C(Nc1ccc2c(c1)OCCO2)c1cccc(C(=O)Nc2ccc3c(c2)OCCO3)c1,x,x,11,x,0.8,
Cc1cccc(N2C(=O)CC(N3CCN(c4ccc(Cl)cc4)CC3)C2=O)c1 (centres undefined),x,x,-3,x,0.4,
O=C(Nc1ccc(NC(=O)c2ccccn2)cc1)C(=O)Nc1ccc2c(c1)OCCO2,-3,1%,-4,x,-0.6,
O=C1C2(CCCC13COC(c1ccc(O)cc1)OC3)COC(c1ccc(O)cc1)OC2 (centres undefined),x,8%,-1,x,-1.6,
CC(C)c1ccc2[nH]c3c(c2c1)CCCC3=O,-8,3%,1,x,9.5,

# Random excerpt: 3 compounds from above.
SMILES,Arbovirus inh,Mtb growth,Mtb betalactam,YopH PTP inh,RecA intein inh,others
CC(C)(C)C(=O)N1CCN(c2ccc(NC(=O)c3ccco3)cc2)CC1,x,x,-7,x,-3.6,
O=C1C2(CCCC13COC(c1ccc(O)cc1)OC3)COC(c1ccc(O)cc1)OC2 (centres undefined),x,8%,-1,x,-1.6,
CC(C)c1ccc2[nH]c3c(c2c1)CCCC3=O,-8,3%,1,x,9.5,

# Next part
SMILES,Arbovirus inh,Mtb growth,Mtb betalactam,YopH PTP inh,RecA intein inh,others
N#C/C(=C(/O)CN1CCN(c2ccccc2F)CC1)c1nc(-c2ccccc2)cs1,-3,-10%,5,-15,0.1,
CC(=O)c1ccc(N2CCN(C(=O)CCCn3c(=O)[nH]c4ccc(Br)cc4c3=O)CC2)cc1,13,8%,24,x,-1.0,
COCC(=O)N(Cc1cc2ccc(C)c(C)c2n2nnnc12)C1CCCC1,6,4%,-3,x,0.8,
COCCC(=O)N1CCC(Oc2ccc(C(=O)NCc3ncc(C)[nH]3)cc2)CC1,x,x,-11,x,-3.9,
Cc1ccc(-c2nnn(CC(=O)N(c3ccc(F)cc3)C(C(=O)NC3CCCC3)c3ccco3)n2)o1 (centres undefined),12,-7%,-2,-25,0.0,
Cc1ncoc1C(=O)N1CCc2c([nH]c3ccccc23)C1c1ccccc1F (centres undefined),-1,-7%,0,x,7.4,
CC(=O)NCc1ccc(S(=O)(=O)N2CCN(c3ccccn3)CC2)cc1,x,x,3,x,1.4,
COc1ccc(O)c(CN2CCCC(N3CCN(c4ccc(F)cc4)CC3)C2)c1 (centres undefined),x,x,3,x,-2.0,
CCOCCCNC(=O)/C(C#N)=C/c1cc(Br)c(O)c(Br)c1,x,5%,x,x,-8.7,
O=C1Nc2ccccc2C1=Nc1ccc(-c2nnc3n2CCCCC3)cc1,-4,-3%,5,-34,-0.4,
COc1nc(-c2ccc3c(c2)OCO3)n(-c2ccc(NC(=O)CSc3ccccc3)cc2)n1,x,-15%,-7,x,-1.1,
COc1ccc(CCNC(=S)N2CCN(S(=O)(=O)c3ccc(F)cc3)CC2)cc1,x,x,1,x,3.4,
CCOC(=O)c1c(C)oc2c1c1c(c3ccccc32)OCN(Cc2cccnc2)C1,-23,11%,x,-4,x,
Cc1ccc(S(=O)(=O)N2CCCN(C(=O)c3cc4ccccc4[nH]3)CC2)cc1,x,x,-1,x,2.0,
Cc1nn(Cc2ccc(Cl)cc2Cl)c(C)c1NC(=O)c1sc2ccccc2c1Cl,-3,8%,34,-19,-1.0,
CC(OC(=O)c1ccncc1)C(=O)Nc1cccc([N+](=O)[O-])c1 (centres undefined),20,2%,-7,x,x,
CCN(CC)CCn1c(C)nc2ccccc21,x,-8%,-2,x,-3.3,
CC(Oc1ccc(Cl)cc1Cl)C(=O)NCCCn1ccnc1 (centres undefined),5,1%,-5,-59,-2.1,
COc1ccc(-c2csc(NC(=O)CCCc3nc4ccccc4c(=O)[nH]3)n2)cc1OC,x,x,8,x,-0.8,
CCOC(=O)c1c(C=O)c2ccccc2n1Cc1ccccc1,x,x,18,x,14,
NC(=O)c1ccc(-n2nnnc2SCC(=O)Nc2ccccc2)cc1,x,x,2,x,-5.8,
O=C(CCNS(=O)(=O)c1ccc(Br)cc1)NCCc1ccc(Cl)cc1,x,x,4,x,-0.9,
Cc1ccc(NC(=O)CCNS(=O)(=O)c2ccc3[nH]c(=O)oc3c2)cc1N(C)C,x,x,0,x,-3.5,
CCCCn1c(O)c(/C=C2/C=CC=N2)c(=O)[nH]c1=O,x,u,100,x,-1.0,
C/C(Cn1nnc([N+](=O)[O-])n1)=N\NC(=O)c1ccc(O)cc1,x,2%,4,x,-12,
COc1ccc(-c2cc(C(=O)Nc3cc(C)on3)no2)cc1OC,3,0%,-3,x,-1.0,
CCN(CC)CCOC(=O)c1ccc(N=Cc2c(O)[nH]c(=O)[nH]c2=O)cc1,4,1%,25,-33,2.0,
O=C(NCCc1cnc[nH]1)c1cccs1,x,x,-1,x,-0.6,
COc1ccccc1C(=O)NC(=O)COC(=O)CCOc1cc(C)ccc1C,x,x,-13,x,0.0,
Cc1nn(C)c(C)c1CCC(=O)O,-3,-3%,-2,x,-3.4,
COc1ccccc1CCC(=O)OCC(=O)NC1CCCC1,x,x,-7,x,-2.2,
Cc1onc(-c2ccccc2)c1C(O)c1ccc(F)cc1 (centres undefined),x,x,-6,x,4.1,
CCCCn1c(NCCN(C)C)nc2c1c(=O)[nH]c(=O)n2C,-4,-11%,-6,-27,2.9,
Nc1nc(N)nc(-c2ccc(Oc3ccccc3)cc2)n1,0,9%,8,-17,-1.4,
O=C(O)CSc1nnc(COc2ccccc2)n1-c1ccccc1,x,x,-1,x,-3.0,
O=C(COC(=O)c1ccccn1)Nc1ncc(C(F)(F)F)cc1Cl,12,0%,8,21,-0.4,
CCOc1ccc(-n2c(O)c(/C=N/Nc3nnc(C)c(=O)[nH]3)c3ccccc3c2=O)cc1,4,u,93,x,3.1,
COc1ccc(C2/C(=C(/O)c3ccccc3)C(=O)C(=O)N2C)cc1OC (centres undefined),x,x,1,x,5.5,
Cc1cc([N+](=O)[O-])ccc1NC(=O)CSc1nncn1-c1ccccn1,x,x,6,x,-2.2,
Cc1cc2c(NC(=O)CC(C)(C)CC(=O)O)cccc2nn1,x,-2%,6,x,6.6,
O=C(O)Cc1ccc(NS(=O)(=O)c2ccccc2Br)cc1,3,-2%,-10,x,-2.8,
C[C@]12C=CC(=O)C=C1CC[C@@H]1C2C(O)C[C@@]2(C)C1CC[C@]2(O)C(=O)COC(=O)CCC(=O)NC(CC(=O)O)C(=O)O (some centres undefined),x,x,3,x,0.3,
O=C(Nc1cccc2ccccc12)C12CC3CC(C1)CC(n1cnc([N+](=O)[O-])n1)(C3)C2,-25,55%,96,-5,2.7,

# These rows are one share of the data. The share of hits here may be higher or lower than overall.
